Screening results: PubChem BioAssay, PCMD
RmlCD inh 1536 – inhibitors of Mycobacterium tuberculosis RmlC and RmlD coupled enzymes; AID 1533; inhibition, % at 3.6 µM; RmlC+RmlD coupled enzyme assay, percent inhibition; primary screen in compound mixtures; P9WH09+P9WH11; 160,000 compounds, 0.03% hits; in the data active = inhibition mostly above about 34%, no sharp cut-off; only retested compounds are shown here; also: some results filed as inactive read as strong as hits
Target sequence (P9WH09 whole entry, looked up): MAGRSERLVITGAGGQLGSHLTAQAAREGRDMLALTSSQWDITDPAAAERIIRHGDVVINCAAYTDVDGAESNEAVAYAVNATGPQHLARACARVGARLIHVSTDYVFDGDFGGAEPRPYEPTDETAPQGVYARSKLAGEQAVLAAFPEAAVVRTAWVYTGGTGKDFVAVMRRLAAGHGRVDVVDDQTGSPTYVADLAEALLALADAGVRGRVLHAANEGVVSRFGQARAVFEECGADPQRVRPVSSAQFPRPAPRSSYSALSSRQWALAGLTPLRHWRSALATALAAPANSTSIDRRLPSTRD
Target sequence (P9WH11 whole entry, looked up): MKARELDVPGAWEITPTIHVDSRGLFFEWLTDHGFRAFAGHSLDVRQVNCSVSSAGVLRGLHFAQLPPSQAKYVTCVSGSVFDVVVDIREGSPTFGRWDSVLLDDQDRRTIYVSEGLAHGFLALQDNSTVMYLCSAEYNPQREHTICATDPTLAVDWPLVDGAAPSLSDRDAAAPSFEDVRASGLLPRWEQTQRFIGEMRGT
RmlCD inh 1536 retest – further read-out of RmlCD inh 1536, marked with its call; inhibition, %; measured here: mean retest inhibition;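 single compounds in two wells; values far above 100% likely come from compound fluorescence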
Numbers without * were called inactive.

mol	RmlCD inh 1536	RmlCD inh 1536 retest
COc1ccc2nc(N3CCCC(O)C3)c(C#N)cc2c1 (configuration not stated)	70	-16
N#Cc1ccsc1NC(=O)c1ccc(Cl)c([N+](=O)[O-])c1	40	7
Cc1cccc(/C=N/NC(=O)NC2CCCCC2)c1	32	-6
CCCCCCC(=O)N/N=C/c1c(O)n(CCc2ccccc2)c(=O)[nH]c1=O	55	-1
Cc1ccc(NC(=O)CC(NCC2CCCO2)C(=O)O)cc1C (configuration not stated)	32	-9
CC12CN3CC(C)(CN(C1)C3c1ccc(Cl)cc1)C2 (configuration not stated)	109	3
O=C1CCCN1S(=O)(=O)c1ccccc1	63	9
CC(C)CC(c1nnnn1C1CCCC1)N1CCC(C(N)=O)CC1 (configuration not stated)	58	-15
Cc1ccc(C2=NN(C3=NN=C(N)Cc4ncnn43)C(O)(C(F)(F)F)C2)cc1 (configuration not stated)	33	-34
O=C(Nc1ncccn1)c1cc([N+](=O)[O-])cc([N+](=O)[O-])c1	47	-3
CN(C)/C=C/C(=O)c1ccc(Br)cc1	40	-7
CC(C)COc1ccc(C(=O)N2C(=O)c3ccc(N)cc3C2=O)cc1	43	-11
CCCCNC(=O)CSc1nc2ccc(C)cc2[nH]1	59	3
COc1ccc([N+](=O)[O-])cc1N(CC(=O)NCc1ccco1)S(C)(=O)=O	48	8
O=C(NCc1ccccc1)c1nc(-c2cccs2)no1	33	-10
O=C(N/N=C/c1ccc(N2CCOCC2)cc1)C1CC1	47	14
NS(=O)(=O)c1ccc(CCNC(=O)/C=C/c2ccc([N+](=O)[O-])cc2)cc1	107	-6
S=C1NCN(Cc2cccnc2)CN1	44	2
CC(C)CC(NC(=O)COc1ccccc1)C(=O)O (configuration not stated)	96	7
CC(=O)Nc1ccc(NC(=O)Cc2sc(C)nc2-c2ccc(C)cc2)cc1	42	-4
O=[N+]([O-])c1cc(Cl)c(O)c2ncccc12	60	2
CCCc1nc(NC(=O)c2ccccc2)nc(NC(=O)c2ccccc2)n1	55	-8
Cc1[nH]c(=O)[nH]c(=O)c1NS(=O)(=O)c1ccccc1	54	-12
NS(=O)(=O)c1ccc(NC(=O)COC(=O)c2cc([N+](=O)[O-])ccc2Cl)cc1	45	8
Cc1onc(-c2ccccc2)c1C(=O)N=C(N)c1ccc(Cl)cc1	74	-15
CC(C)OP(=O)(OC(C)C)C(Nc1ccccc1)c1cccc2c1OCO2 (configuration not stated)	54	-5
COCC(C)NC(=O)/C=C/c1ccc(OC)cc1 (configuration not stated)	66	-3
N#C/C(=C\c1ccccc1[N+](=O)[O-])C(=O)Nc1ccc(S(N)(=O)=O)cc1	74	-23
CCN1/C(=C/c2sc(-c3ccccc3C)c[n+]2C)Sc2ccccc21	33	-14
CN(C)S(=O)(=O)c1ccc(NC(=O)C2CC(=O)N(Cc3ccccc3)C2)cc1 (configuration not stated)	35	-5
Cc1ccc(NC(=S)NNC(=O)c2cccc([N+](=O)[O-])c2)cc1Cl	40	10
CC(C)OC(=O)C(C(=O)C(F)(F)F)c1cc(NS(=O)(=O)c2ccc3ccccc3c2)c2ccccc2c1O (configuration not stated)	33	-30

Compound profiles, as listed above.
NS(=O)(=O)c1ccc(NC(=O)COC(=O)c2cc([N+](=O)[O-])ccc2Cl)cc1 as listed: RmlCD inh 1536: 45; RmlCD inh 1536 retest: 8
NS(=O)(=O)c1ccc(CCNC(=O)/C=C/c2ccc([N+](=O)[O-])cc2)cc1 as listed: RmlCD inh 1536: 107; RmlCD inh 1536 retest: -6

(list continues)
mol	RmlCD inh 1536	RmlCD inh 1536 retest
CCOC(=O)c1ccc(N=Cc2nc3ccccc3n2C)cc1	103	2
CCn1c(C)nc2cc(C(=O)N/N=C(\C)c3ccc(OC)cc3O)ccc21	37*	132*
COc1ccc(-c2nc(N)nc(C(F)(F)F)c2-c2cscn2)c(O)c1	36	9
COC(=O)C(C)Sc1nc2c(c(=O)n(C)c(=O)n2C)n1Cc1cccc(C)c1 (configuration not stated)	101	-6
O=C1N/C(=N/S(=O)(=O)Cc2ccccc2)S/C1=C/c1ccc2c(c1)OCO2	49	7
CC1CCN(S(=O)(=O)c2cccc(C(=O)NNC(=O)c3ccco3)c2)CC1	66	-2
N#Cc1ccccc1NC(=O)c1ccc2c(Cl)c3c(nc2c1)CCCC3	38	-7
CCOc1ccccc1N=c1oc2cc(O)ccc2cc1C(=O)NCC1CCCO1 (configuration not stated)	50	17
CNC(=S)N/N=C(\C)c1ccc(Cl)s1	107	-11
Cc1ccc(C(=O)O)cc1N1CCCC1=O	34	-14
Cc1cccc(C)c1NC(=O)c1cc(-c2ccccn2)nc2ccccc12	35	4
CC1CCc2sc(C(=O)N/N=C/C3CCCCC3)cc2C1 (configuration not stated)	47	-14
O=C(NCCCCCCNC(=O)c1cccs1)c1cccs1	32	6
COc1ccc(Cl)cc1C(=O)Nc1ccc(S(N)(=O)=O)cc1	79	-3
Cc1ccc(OCCn2cc(/C=C(\C#N)C(=O)NCC3CCCO3)c3ccccc32)cc1 (configuration not stated)	56	12
C=CCn1c(NCc2ccc(N(C)C)cc2)nc2ccccc21	67	4
Cc1cc(=O)n(C)c(=O)n1CCCCOc1cccc([N+](=O)[O-])c1	75	-5
COc1ccc(C(=O)CCNc2ccc(F)cc2)cc1	57	-8
Cc1ccc(/C=C/C(=O)Nc2cc(S(N)(=O)=O)ccc2O)cc1	66	-14
CCOC(=O)C1=C(O)C(=O)N(c2ccc(S(N)(=O)=O)cc2)C1c1ccc(Br)cc1 (configuration not stated)	70	11
Cc1cccc(N(CC(=O)NC(C)(C)C)C(=O)CNC(=O)c2cccs2)c1	106	0
COc1ccc(-c2cccc(C(=O)Nc3ccccc3C)c2)cc1	36	9
O=C(NC(=S)N1CCN(Cc2ccc3c(c2)OCO3)CC1)c1ccc(Cl)cc1	88	-18
O=C(Nc1cccc(-c2ccccc2)c1)N1CCN(C(=O)Nc2cccc(-c3ccccc3)c2)CC1	52	7
N#C/C(=C(/O)CCl)c1nc2ccccc2[nH]1	69	16
C/C(=N\Nc1nc2ccc(Cl)cc2o1)c1ccccc1	79	1
CC(=O)[C@@H]1[C@@H]2C(=O)N(Cc3ccccc3)C(=O)[C@@H]2C2c3ccccc3C=CN21 (some centres not stated)	100	5
Cc1ccc(C(O)CSc2nnc(-c3ccc4ccccc4c3)n2C)cc1 (configuration not stated)	35	-7
CC(=O)Nc1ccc(C(=O)/C=C/c2ccc[nH]2)cc1	31	-12
Cc1cccc(N(Cc2cc3ccccc3[nH]c2=O)C(=O)c2cccs2)c1	38	-9
CC(C)(C)CN1CCNC(=O)C1CC(=O)NC1Cc2ccccc2C1 (configuration not stated)	35	-8
Cc1ccc(C(=O)COC(=O)c2cccc(N3C(=O)c4c(C)nc5ccccc5c4C3=O)c2)cc1C	89	5
Cc1nn(-c2ccccc2)c(N2CCCC2)c1/C=C1\N=C(c2ccc(OC(C)C)cc2)OC1=O	73	15
COc1ccc(-c2ccc(C#N)c(SCC(=O)Nc3sc4c(c3C#N)CCC4)n2)cc1OC	95	-134
O=C(NC(c1ccccc1)C(Cl)Cl)c1ccccc1 (configuration not stated)	52	-23
COc1ccc(NC(=O)c2cccnc2NCCc2ccccc2)cc1	106	1
Cc1occc1C(=O)Nc1ccccc1C(=O)O	37	-6
CC1=NN(C(C#N)c2ccccc2C)C(C)(C)C1 (configuration not stated)	99	5
O=C(CSc1ccc(-c2ccc(Cl)cc2)nn1)N1CCCc2ccccc21	37	-33
Cc1oc(-c2ccc(Cl)cc2)cc1C(=O)/C(C#N)=C/Nc1cccc(OC(F)(F)F)c1	63	24

A section of the results above, for reference:
mol	RmlCD inh 1536	RmlCD inh 1536 retest
Cc1ccc(OCCn2cc(/C=C(\C#N)C(=O)NCC3CCCO3)c3ccccc32)cc1 (configuration not stated)	56	12
C=CCn1c(NCc2ccc(N(C)C)cc2)nc2ccccc21	67	4
Cc1cc(=O)n(C)c(=O)n1CCCCOc1cccc([N+](=O)[O-])c1	75	-5
COc1ccc(C(=O)CCNc2ccc(F)cc2)cc1	57	-8
Cc1ccc(/C=C/C(=O)Nc2cc(S(N)(=O)=O)ccc2O)cc1	66	-14
CCOC(=O)C1=C(O)C(=O)N(c2ccc(S(N)(=O)=O)cc2)C1c1ccc(Br)cc1 (configuration not stated)	70	11
Cc1cccc(N(CC(=O)NC(C)(C)C)C(=O)CNC(=O)c2cccs2)c1	106	0
COc1ccc(-c2cccc(C(=O)Nc3ccccc3C)c2)cc1	36	9
O=C(NC(=S)N1CCN(Cc2ccc3c(c2)OCO3)CC1)c1ccc(Cl)cc1	88	-18
O=C(Nc1cccc(-c2ccccc2)c1)N1CCN(C(=O)Nc2cccc(-c3ccccc3)c2)CC1	52	7
N#C/C(=C(/O)CCl)c1nc2ccccc2[nH]1	69	16
C/C(=N\Nc1nc2ccc(Cl)cc2o1)c1ccccc1	79	1
CC(=O)[C@@H]1[C@@H]2C(=O)N(Cc3ccccc3)C(=O)[C@@H]2C2c3ccccc3C=CN21 (some centres not stated)	100	5
Cc1ccc(C(O)CSc2nnc(-c3ccc4ccccc4c3)n2C)cc1 (configuration not stated)	35	-7
CC(=O)Nc1ccc(C(=O)/C=C/c2ccc[nH]2)cc1	31	-12
Cc1cccc(N(Cc2cc3ccccc3[nH]c2=O)C(=O)c2cccs2)c1	38	-9
CC(C)(C)CN1CCNC(=O)C1CC(=O)NC1Cc2ccccc2C1 (configuration not stated)	35	-8
Cc1ccc(C(=O)COC(=O)c2cccc(N3C(=O)c4c(C)nc5ccccc5c4C3=O)c2)cc1C	89	5
Cc1nn(-c2ccccc2)c(N2CCCC2)c1/C=C1\N=C(c2ccc(OC(C)C)cc2)OC1=O	73	15
COc1ccc(-c2ccc(C#N)c(SCC(=O)Nc3sc4c(c3C#N)CCC4)n2)cc1OC	95	-134
O=C(NC(c1ccccc1)C(Cl)Cl)c1ccccc1 (configuration not stated)	52	-23
COc1ccc(NC(=O)c2cccnc2NCCc2ccccc2)cc1	106	1
Cc1occc1C(=O)Nc1ccccc1C(=O)O	37	-6
CC1=NN(C(C#N)c2ccccc2C)C(C)(C)C1 (configuration not stated)	99	5
O=C(CSc1ccc(-c2ccc(Cl)cc2)nn1)N1CCCc2ccccc21	37	-33
Cc1oc(-c2ccc(Cl)cc2)cc1C(=O)/C(C#N)=C/Nc1cccc(OC(F)(F)F)c1	63	24

Later entries.
mol	RmlCD inh 1536	RmlCD inh 1536 retest
O=C(CSc1nnc(-c2cccs2)o1)Nc1cccc(S(=O)(=O)N2CCCCC2)c1	47	3
COc1ccc(OCC(=O)NC(=S)Nc2ccccc2F)cc1	38	5
CC(C)CC(=O)NC(c1ccccc1Cl)c1c(O)ccc2ccccc12 (configuration not stated)	43	-11
CC1CCN(C(=S)NC(=O)c2cccs2)CC1	43	-3
Cc1ccsc1C(=O)C1CCCN(Cc2cccn2-c2ccc(Cl)cn2)C1 (configuration not stated)	35	-5
C=CCOc1c(Br)cc(/C=C2/NC(=S)N(C(C)=O)C2=O)cc1OC	73	-6
CCOC(=O)c1nc(-c2ccccc2)sc1C(C)=O	64	-2
O=C1C(CCCNC(=S)NCc2ccccc2)NC(=S)N1Cc1ccccc1 (configuration not stated)	34	-8

An excerpt; count on the stated rates, not on these rows.
